VDR inh = inhibitors of human vitamin D receptor; VDR-SRC2-3 peptide fluorescence polarization, 2 h; Potency, µM, inactives show max response, negative = inhibition, most hits filed as inhibitors; 0.93% of 400,000 active; AID 504847; active means well fitted inhibition curve with a large enough effect; inconclusive means small, poorly fitted or top-dose-only effect, or another doubt; inactive means no such curve, though single readings can be large or run the other way; further: series mostly up to about 120 µM
Target sequence (P11473 whole entry, looked up): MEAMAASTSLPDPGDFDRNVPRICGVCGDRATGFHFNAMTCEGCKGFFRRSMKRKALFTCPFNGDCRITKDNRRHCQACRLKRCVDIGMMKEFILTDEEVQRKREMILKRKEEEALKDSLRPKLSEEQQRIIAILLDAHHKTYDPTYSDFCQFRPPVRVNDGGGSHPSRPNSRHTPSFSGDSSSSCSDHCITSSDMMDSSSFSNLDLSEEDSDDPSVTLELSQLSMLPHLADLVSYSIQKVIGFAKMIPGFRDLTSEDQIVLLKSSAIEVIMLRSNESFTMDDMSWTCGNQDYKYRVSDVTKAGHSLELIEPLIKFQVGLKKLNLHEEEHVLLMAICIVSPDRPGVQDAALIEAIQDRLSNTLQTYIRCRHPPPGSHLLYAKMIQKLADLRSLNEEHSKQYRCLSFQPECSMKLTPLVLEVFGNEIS
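After 23 nl compound addition and a short centrifugation, plates sat for 2 hours at ambient temperature; polarization of fluorescence then indicated loss of VDR binding to peptide SRC2-3.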
* hit, by the source's call; u = inconclusive; & = joins results of further samples; [ ] = dose if it differs, or a comment. On the % scale 0 is the no-effect control and ±100 the full control effect; potency means the concentration at half of the fitted maximal effect. The list is partial; the hit share may differ from the screen's.

molecule	VDR inh
CN(C)S(=O)(=O)c1ccc(C(=O)Nc2cccnc2)cc1	20%
Cc1nnc(SCc2cccc(Oc3ccccc3)c2)n1N	-7%
CCCOc1ccc(C(=O)CCC(=O)Nc2ccc(N3CCN(C)CC3)cc2)cc1	19%
Nn1c(Cc2cccc3ccccc23)nnc1SCC(=O)NC1CCS(=O)(=O)C1 (stereo not drawn)	-16%
N/C(=N\O)c1ccc(Oc2ccccc2Cl)c([N+](=O)[O-])c1	-2%
COCCN(CCOC)C(=O)C1CCCN(S(=O)(=O)c2ccc(NC(=O)OC)cc2)C1 (stereo not drawn)	-5%
CCOC(=O)Cc1c(C)nc2cc(-c3ccc(C(C)(C)C)cc3)[nH]n2c1=O	15%
Brc1ccc(OCCOCCN2CCOCC2)cc1	-1%
C/C(=N\NC(=O)c1c(Br)c(C)nn1C)c1ccc(NC(=O)c2ccoc2C)cc1	-11%
CC(CCO)Nc1nc2c(c(=O)n(C)c(=O)n2C)n1Cc1ccc(Br)cc1 (stereo not drawn)	-5%
COc1ccc(OC)c(CNC(=O)Nc2cn(CC(C)C)c(=O)c3ccccc23)c1	4%
Cc1cc(C)cc(C(=O)Oc2cc(C)[nH]c(=O)c2[N+](=O)[O-])c1	-5%
COc1ccccc1CCn1c(=O)c(-c2cn(C)c3ccccc23)nc2cncnc21	2%
CCOC(=O)N1CCC(NC(=O)C2CCCCN2S(=O)(=O)c2ccc(F)cc2)CC1 (stereo not drawn)	8%
COc1ccc(NC(=O)Nc2ccc(C(=O)N3CCOCC3)cc2)cc1OC	-5%
Cc1cc2cc(CN(Cc3ccc4c(c3)OCO4)C(=O)c3ccco3)c(=O)[nH]c2cc1C	0%

Sorted by SMILES length (ascending): some entries from above.
molecule	VDR inh
CC(CCO)Nc1nc2c(c(=O)n(C)c(=O)n2C)n1Cc1ccc(Br)cc1 (stereo not drawn)	-5%
COc1ccc(OC)c(CNC(=O)Nc2cn(CC(C)C)c(=O)c3ccccc23)c1	4%
Cc1cc2cc(CN(Cc3ccc4c(c3)OCO4)C(=O)c3ccco3)c(=O)[nH]c2cc1C	0%

(list continues)
molecule	VDR inh
CCN(CC)CCC(c1cc(OC)c(OC)c(OC)c1)c1c(OC)cc(OC)c2c(-c3ccccc3)cc(=O)oc12 (stereo not drawn)	19%&-8%
COc1nc(-c2ccccc2Cl)ccc1C#N	-2%
CCOC(=O)COc1nc(C)c(Br)c(OC)n1	-8%
COc1cccc(NC(=O)c2sc3nc4n(c(=O)c3c2C)CCC4)c1	-5%&3%
CS(=O)(=O)N(CC(=O)N1CCCCC1)Cc1ccccc1	27%
Cc1ccc(S(=O)(=O)CCSc2n[nH]c(=O)n2-c2ccccc2)cc1	16%
CC(=O)N1CCC2(CC1)CCN(c1ccccc1)CC2	13%
Cc1c(NC(=O)/C=C/C(=O)O)cccc1[N+](=O)[O-]	-8%
O=C(O)Cc1ccc(NC(=S)Nc2cccc(Cl)c2Cl)cc1	9%
COC(=O)COc1cccc2c(=O)n(CC(=O)N3CCCCC3)ccc12	-18%
COc1cc(OC)c(C(=O)Nc2cc(S(=O)(=O)N3CCOCC3)ccc2N2CCN(C)CC2)cc1OC	-9%
CCOc1ccc(-c2nnc(Nc3ccc(S(N)(=O)=O)cc3)c3ccccc23)cc1	2%
COc1ccc(S(=O)(=O)Nc2ccc3c(c2)C(=O)N([C@@H](C)CO)C[C@H](C)[C@H](CN(C)S(=O)(=O)c2ccc(F)cc2)O3)cc1	3%
COc1ccc(/C=N/NC(=O)c2ccoc2C)cc1CN1CCN(c2ccc(F)cc2)CC1	5%
COc1cc2c(cc1OC)-c1nnnn1C(C)(C)C2	-3%
CN(N)c1ccc2c(C(F)(F)F)cc(C(F)(F)F)nc2n1	-12%
CCOc1cc2[nH]c(=S)n(Cc3ccc(C(=O)N4CCN(C)CC4)cc3)c(=O)c2cc1OCC	8%
CCCNc1nc(C)cc(-c2cc(-c3ccc(Cl)cc3)on2)n1	6%
C=C1CCN([C@@H](Cc2ccccc2)C(=O)NCc2ccc(Cl)c(Cl)c2)S(=O)(=O)c2ccccc21	5%
N#CC1=C(N)NC(SCC(=O)c2ccc(Cl)cc2)=C(C#N)C12CCCC2	1%
CSc1nc2n(n1)C(c1cccc(F)c1)C(C(=O)Nc1ccc(C)cc1C)=C(C)N2 (stereo not drawn)	4%
CC1(C)Cc2cccc(OCC(=O)N3CCN(S(=O)(=O)c4ccccc4)CC3)c2O1	-9%
CC1(c2ccc3ccccc3c2)CCC(=O)O1 (stereo not drawn)	-14%
CCCN(CCC)c1nc(N)c(C#N)c(CC#N)c1C#N	9%
COc1ccc(Cl)cc1S(=O)(=O)N1CCN=C1c1ccccc1	-5%
COC(=O)c1sccc1N/N=C/c1cccc(Oc2ccccc2)c1	3%
Cc1ccc(S(=O)(=O)Cc2ccc(C(=O)N3CCN(c4cccc(C)c4C)CC3)o2)cc1	2%&-8%
COCCN1C(=O)C(=O)/C(=C(/O)c2ccc(OC(C)C)cc2)C1c1cccnc1 (stereo not drawn)	6%
CN(C)CCNc1nc2sc3c(c2c(=O)n1Cc1ccccc1)CCCCC3	-3%
Cc1c(Cl)cccc1NC(=O)C1CCN(c2ncnc3c2nc2n3CCCCC2)CC1	0%
CCOc1ccc(C2c3c(oc4ccccc4c3=O)C(=O)N2CCCN2CCOCC2)cc1 (stereo not drawn)	-3%
CCN(C[C@H]1N[C@@](Cc2ccccc2)(C(=O)OC)[C@H]2C(=O)N(Cc3ccccc3)C(=O)[C@@H]12)S(=O)(=O)c1ccccc1	-3%
CCOc1ccc(/C(C)=N/NC(=O)c2nnn(-c3nonc3N)c2-c2cccs2)cc1	10%
Cc1ccc2nc(SCC(=O)NC3CCCC3)nc(=O)n2c1	-10%
O=C(CCS(=O)(=O)c1cc(Br)cc2c1N(C(=O)C1CC1)CC2)NCc1ccccc1Cl	-4%
O=C(COc1ccccc1)Nc1nnc(S(=O)(=O)Nc2ccccc2)s1	0%&5%
Cc1ccccc1C1CC(=O)Oc2cc(C)c(Br)c(C)c21 (stereo not drawn)	-4%
O=C(CSc1ccc(-c2ccccn2)nn1)Nc1cccc(F)c1	0%
CC(C)CCNC(=O)CN1C(=O)CSc2ccc(S(=O)(=O)N3CCCCC3)cc21	-9%
CCc1ccc(N2C(=O)CN(Cc3ccccc3)C2=S)cc1	-12%
Cc1cccc(C)c1NC(=O)NC1(C(=O)NCC2CCCO2)CCCCC1 (stereo not drawn)	24%
S=C(Nc1ccccc1)Nc1ccccc1Br	-4%
Cc1c(C(=O)OCC(=O)Nc2ccc(S(N)(=O)=O)cc2)oc2c1ccc1ccccc12	-7%
COc1cccc(NC(=S)NNC(=O)CCn2cc([N+](=O)[O-])cn2)c1	1%
COc1ccccc1NC(=O)CCC(=O)Nc1ccccc1OC	20%
O=C(NC1CC2CCCC(C1)N2C(=S)Nc1ccccc1Cl)C1CC1 (stereo not drawn)	-14%
CCc1cccc(C)c1NC(=O)C1CCCN(S(C)(=O)=O)C1 (stereo not drawn)	-16%
CCOC(=O)CCCCCC(=O)Nc1ccc2c(c1)CC(=O)N([C@@H](C)CO)C[C@H](C)[C@@H](CN(C)Cc1ccccc1)O2	10%

Shown with the structure last: part of the list above
VDR inh | Compound
20% | COc1ccccc1NC(=O)CCC(=O)Nc1ccccc1OC
-14% | O=C(NC1CC2CCCC(C1)N2C(=S)Nc1ccccc1Cl)C1CC1 (stereo not drawn)

Continuation:
molecule	VDR inh
COc1ccc(/C=C/C(=O)NCC(=O)N/N=C/c2cc(Br)ccc2OC)cc1	14%
COc1ccc(CN2CC(=O)N(c3ccc(C)cc3C)C2=S)cc1OC	4%
CC(C)(C)c1csc(N/N=C/c2ccc(O)cc2)n1	-10%
CC(NS(=O)(=O)c1ccc(Cl)cc1)C(=O)OCC(=O)Nc1ccc(N(C)C)cc1 (stereo not drawn)	u
CCOC(=O)C1CCN(S(=O)(=O)c2cc(-c3onc(C)c3C)ccc2OC)CC1	5%
C=CCN1CCN(C(=O)c2ccc3c(c2)OCO3)CC1	-15%
N#Cc1ccc(C(=O)CN2CCN(c3ccccc3)CC2)cc1	3%
CC(C)c1nc2oc3c(NCc4ccccn4)ncnc3c2c2c1COC(C)(C)C2	9%

The list goes on, overlapping the part above by 5 compounds.
molecule	VDR inh
CC(NS(=O)(=O)c1ccc(Cl)cc1)C(=O)OCC(=O)Nc1ccc(N(C)C)cc1 (stereo not drawn)	u
CCOC(=O)C1CCN(S(=O)(=O)c2cc(-c3onc(C)c3C)ccc2OC)CC1	5%
C=CCN1CCN(C(=O)c2ccc3c(c2)OCO3)CC1	-15%
N#Cc1ccc(C(=O)CN2CCN(c3ccccc3)CC2)cc1	3%
CC(C)c1nc2oc3c(NCc4ccccn4)ncnc3c2c2c1COC(C)(C)C2	9%
COc1ccc(CCNC(=O)CSc2cc(=O)[nH]c(N)n2)cc1OC	-9%
Cc1nnc(SCC(=O)NNC(=O)COc2ccc(Cl)cc2)s1	-20%
CC(C)Sc1snnc1-c1ccccc1	13%
CC(=O)Nc1nc(C2CC2)cc(-c2ccccc2)c1C#N	-5%
O=C(NCC(c1ccco1)N1CCCCC1)c1ccc([N+](=O)[O-])s1 (stereo not drawn)	-2%
COc1cccc(C(=O)N2C(C(=O)O)CSC2c2ccccc2Cl)c1 (stereo not drawn)	-4%
Cc1cccc(N2CCN(C(c3ccccc3)c3nnnn3C(C)(C)C)CC2)c1C (stereo not drawn)	46%[activator]
CCOC(=O)C1CCN(Cc2nc3ccc([N+](=O)[O-])cc3c(=O)n2-c2ccc(OC)cc2OC)CC1	u
COc1ccc(-c2n[nH]c(C)c2-c2cnn(-c3ccccc3)c2)c(O)c1	4%
COc1ccc2sc(-c3ccc(N(C)C)cc3)c(C#CCO)c2c1	14%
Cc1c(C#N)c(O)[nH]c(=O)c1N=Nc1ccc(Br)cc1C(=O)O	-10%
COc1ccc(NC(=S)Nc2cc(C)cc(C)n2)cc1OC	-21%
COC(=O)CN(C(=S)Nc1ccc(F)cc1)C1CC(=O)N(c2ccccc2)C1=O (stereo not drawn)	-7%
CSc1nc(Cl)c(Cc2ccc(OCC(C)C)cc2)c(N2CCOCC2)n1	29%
CCC(=O)N(CCC1(c2ccccc2OC)CCOC(C(C)C)C1)Cc1ccco1 (stereo not drawn)	-11%
O=c1c(-c2ccc(F)cc2)nc2cnc(N3CCOCC3)nc2n1Cc1cccs1	-9%
O=C(c1ccco1)N1CCN(C(c2coc3ccc(Cl)cc3c2=O)c2nnnn2C2CCCC2)CC1 (stereo not drawn)	0%
CCN(CC)C(=O)[C@H]1CC(CC(=O)NCCN2CCOCC2)C(=O)N2CCc3c([nH]c4ccccc34)[C@]12C (stereo partly drawn)	-5%
O=C(O)CCC(=O)Nc1nc2nc(-c3ccccc3)cc(-c3ccccc3)n2n1	-1%
Cn1ccnc1SCC(=O)Nc1ccc(SC(F)F)cc1	-27%
COc1ccccc1/C=N/NC(=O)c1ccc(=O)n(C)c1	-8%
COc1ccc(S(=O)(=O)N2CCN(C(=O)CN3C(=O)NC(C)(C)C3=O)CC2)cc1	1%
COc1ccc(/C=C/C(=O)NCCC(=O)N2CCCN(C)CC2)cc1	2%
Cn1c(=O)n(C)c2cc(N3CCCCC3)c(NC(=O)c3c(F)cccc3F)cc21	-16%
CCCSc1nnc(Cn2c(=O)sc3ccccc32)n1-c1ccccc1	-20%
C=C[C@](C)(O)CCC=C(C)C	10%
O=C(COc1ccc(S(=O)(=O)N2CCCC2)cc1Cl)N1CCN(c2ccccc2)CC1	14%
Cc1cc(/N=C/C=C2\N(C)c3ccccc3C2(C)C)n(CCC#N)n1	-9%
C=CCNC(=O)c1onc(CSc2cccc(OCC)c2)c1C(=O)O	5%
CC1CCCN(CCCNC(=O)CN2C(=O)CSc3ccc(S(=O)(=O)N4CCOCC4)cc32)C1 (stereo not drawn)	-10%&-7%
CC(=O)c1ccc(N2CCN(S(=O)(=O)c3ccc4c(c3)CC(=O)N4)CC2)cc1	12%
